Screens: PubChem, National Center for Advancing Translational Sciences (NCATS)
RE007 growth inh: less growth of the S. pombe RE007 Vpr strain. Potency, µM (series often up to 92.2 µM), without a hit: at the highest dose activity change, negative = less growth. S. pombe RE007 Vpr strain, BacTiter-Glo ATP luminescence, 24 h; control for the full effect not named in the record. 360,000 tested, 0.21% active. AID 651644; active = well fitted falling curve with a large enough effect; inconclusive = small, poorly fitted or top-dose-only effect; inactive = no such curve, though single readings can be large or run the other way;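 also: % is scaled to controls: 0 for no effect and ±100 for the full control effect; nearly all actives have a fitted effect of over 50% in size; the assay follows cell death caused by Vpr and the record does not say whether a fall means rescue or toxicity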
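Fission yeast strain RE007, carrying one chromosomally integrated HIV-1 vpr copy, was seeded at OD 0.01 in PMG+AL medium with 23 nL pinned compound. After 24 h at 30 °C and 99% humidity, viability was read by BacTiter-Glo luminescence.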
Cruzain noTriton: cruzain (T. cruzi) inhibition without detergent | P25779 | purified cruzain, Z-FR-AMC fluorescence, no detergent | Potency, µM, inactives show max response, negative = inhibition, actives largely listed as inhibitors | 200,000 tested, 2.3% active | AID 1476; active = well fitted curve in the direction sought with a large enough effect; inconclusive = small, poorly fitted or top-dose-only effect, or another doubt; inactive = no such curve, though single readings can be large; an effect the other way counts as inactive or inconclusive;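 also: plate controls were enzyme without inhibitor for no effect and buffer without enzyme for full effect; nearly all actives have a fitted effect of over 40% in size; top concentration of the series not given in the record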
Target sequence (P25779 123-467 limits assumed): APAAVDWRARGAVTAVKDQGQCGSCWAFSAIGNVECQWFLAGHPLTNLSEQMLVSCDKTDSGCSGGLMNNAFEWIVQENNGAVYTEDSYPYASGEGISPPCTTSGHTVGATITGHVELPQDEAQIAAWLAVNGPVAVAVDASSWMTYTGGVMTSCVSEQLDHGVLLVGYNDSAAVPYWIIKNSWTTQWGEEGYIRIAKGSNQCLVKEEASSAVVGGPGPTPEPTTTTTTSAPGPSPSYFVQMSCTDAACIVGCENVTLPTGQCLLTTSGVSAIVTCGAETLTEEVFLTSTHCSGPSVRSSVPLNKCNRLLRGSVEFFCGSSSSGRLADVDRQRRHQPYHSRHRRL
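Purified cruzain at 1.5 nM, pre-incubated 15 min with compound at room temperature in 100 mM sodium acetate pH 5.5, 5 mM DTT, 0.00005% Triton X-100. Reaction started with 2 uM Z-FR-AMC; AMC fluorescence increase over 60 s gives rate.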
MARV entry inh: inhibitors of Marburg virus binding or cell entry. Potency, µM (series often up to 37.8 µM), for the others: at the highest dose activity change, negative = inhibition, actives largely listed as inhibitors. Marburg virus pseudotyped entry inhibition, cell reporter; control for the full effect not named in the record; about a third of the inactives were read at about 46 µM. 300,000 tested, 1.8% active; active = well fitted inhibition curve with a large enough effect; inconclusive = small, poorly fitted or top-dose-only effect, or effect the other way; inactive = flat fitted curve, though single readings scatter; tested in HEK293 cells; about a fifth of its hits are not listed in these tables; also: % is scaled to controls: 0 for no effect and ±100 for the full control effect; luciferase read-out
SARS PLP yeast: SARS-CoV PLP inhibition in yeast | S. cerevisiae expressing SARS-CoV PLpro, growth rescue; control for the full effect not named in the record | 330,000 tested, 0.19% active | Potency, µM (highest dose often 32.9 µM), without a hit: top-dose activity, positive = growth rescue | AID 485353; also: 0% is about no effect; nearly all actives have a fitted effect of over 55% in size; growth read by luminescence after 48 h
2A StopGo: lowers the luciferase signal of an FMDV 2A StopGo reporter; Potency, µM (series often up to 57.9 µM), for the others: top-dose signal change, negative = less light; AID 1159524; human cells with a luciferase reporter of 2A StopGo recoding; control for the full effect not named in the record; 410,000 tested, 1.2% active; active = well fitted falling curve with a large enough effect; inconclusive = small, poorly fitted or top-dose-only effect; inactive = no such curve, though single readings can be large or run the other way; tested in HEK293T cells; also: % is scaled to controls: 0 for no effect and ±100 for the full control effect; nearly all actives have a fitted effect of over 45% in size; luciferase light after 4 h
LASV entry inh: Lassa virus entry inhibition; Lassa virus pseudotype entry inhibition, cell reporter; control for the full effect not named in the record; Potency, µM (highest dose often 37.9 µM), inactives show at the top dose activity change, negative = inhibition, actives largely listed as inhibitors; 300,000 tested, 1.2% active; active means well fitted inhibition curve with a large enough effect; inconclusive means small, poorly fitted or top-dose-only effect, or effect the other way; inactive means flat fitted curve, though single readings scatter; tested in HEK293 cells; also: % is scaled to controls: 0 for no effect and ±100 for the full control effect; nearly all actives have a fitted effect of over 50% in size; luciferase read-out
NS1 function inh: blocks influenza NS1 protein function; S. cerevisiae slowed by influenza A NS1, growth recovery by OD600; Potency, µM (titrated, usually from 46.1 µM), for inactives: at the top dose activity, positive = more growth; 270,000 tested, 0.4% active; AID 2326; also: actives are rising curves; nearly all actives have a fitted effect of over 50% in size
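Compounds were scored for reversing the slow growth caused by influenza A NS1 in S. cerevisiae, measured by optical density at 600 nm. Assay medium contained 2% galactose at pH 6.0; NS1-free yeast of the same strain were the positive control.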
Cruzain inh Det: blocks cruzain activity in presence of Triton detergent | P25779 | purified cruzain, Z-FR-AMC fluorescence, 0.01% Triton | Potency, µM, inactives show max response, negative = inhibition, usual class: inhibitors | 200,000 tested, 0.43% active; active = well fitted curve in the direction sought with a large enough effect; inconclusive = small, poorly fitted or top-dose-only effect, or another doubt; inactive = no such curve, though single readings can be large; an effect the other way counts as inactive or inconclusive;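 also: plate controls were neutral wells for no effect and buffer without enzyme for full effect; nearly all actives have a fitted effect of over 40% in size; top concentration of the series not given in the record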
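15 min RT preincubation of 1.5 nM cruzain with compound, then 2 uM Z-FR-AMC added; kinetic AMC fluorescence, 60 s delta. Triton X-100 0.01%, pH 5.5.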
Numbers without * were called inactive; u = inconclusive; x = not tested or not shown; & = joins results of further samples; [ ] = dose if it differs, or a comment. Unless noted, calls follow the shape of the dose curve; as a rule, active means well fitted rising curve with a large enough effect; inconclusive means small, poorly fitted or top-dose-only effect; inactive means no such curve, though single readings can be large or run the other way. Potency is read from the fitted curve at half-maximal effect.

A first look:
SMILES	RE007 growth inh	Cruzain noTriton	MARV entry inh	SARS PLP yeast	2A StopGo	LASV entry inh	NS1 function inh	Cruzain inh Det
CNC(=S)N(C)/N=C1/C(=O)N(Cc2c(Cl)cccc2Cl)c2ccccc21	22.0%	x	u	1.2%	-28.2%	u	x	x
Cc1cccc(NC(=S)N(c2ccccc2)C(C)C)c1C	2.3%	4.6%	5.2%	-34.4%	-13.5%	7.0%	2.5%	6.9%

The listing, repeating the preview:
SMILES	RE007 growth inh	Cruzain noTriton	MARV entry inh	SARS PLP yeast	2A StopGo	LASV entry inh	NS1 function inh	Cruzain inh Det
CNC(=S)N(C)/N=C1/C(=O)N(Cc2c(Cl)cccc2Cl)c2ccccc21	22.0%	x	u	1.2%	-28.2%	u	x	x
Cc1cccc(NC(=S)N(c2ccccc2)C(C)C)c1C	2.3%	4.6%	5.2%	-34.4%	-13.5%	7.0%	2.5%	6.9%
C/C(=N\Nc1ccccc1)c1c(O)cc(C)oc1=O	47.3%	x	u	1.4%	3.3%	u	x	x
CCOC(=O)c1ccc(N2C(=O)c3n[nH]c(C)c3C2c2ccco2)cc1 (stereo unspecified)	3.9%	6.3%	u	-1.1%	0.0%	u	-16.2%	-2.3%
CCOc1ncccc1C(=O)Nc1ccc(OC)c(S(=O)(=O)N2CCCCC2)c1	0.3%	x	-2.0%[46.1 µM]	0.1%	-28.5%	-18.4%	-1.0%	x
Cc1cccc(CSc2nncc(=O)[nH]2)c1	13.5%	-16.3%	14.4%	-10.3%	-14.8%	-0.5%	1.8%	5.0%
C=CCC(C=C)[N+]1(CC(=O)OC)CCCCC1 (stereo unspecified)	28.8%	x	-0.1%[46.1 µM]	-2.1%	-5.2%	16.5%[46.1 µM]	x	x
CN(C)c1ccc(C(CNC(=O)COc2ccc(Cl)cc2)N2CCOCC2)cc1 (stereo unspecified)	x	20.1%	x	x	-22.5%	8.2%[46.1 µM]	x	1.8%
CCOc1ccc(-n2nc3c(=O)n(CCN4CCCCC4)nc(C)c3c2C)cc1	-6.8%	1.7%	u	1.0%	-21.1%	-14.5%	-6.2%	-2.0%
Nc1cc(-c2ccc(Br)cc2)[nH]n1	-2.5%	-2.3%	8.1%&8.1%	-11.6%	8.7%	2.3%	u	-2.7%
O=C(OCC(=O)N1CCCC1)c1c(Cl)ccc(Cl)c1Cl	9.5%	x	-10.1%[46.1 µM]	-2.8%	-12.6%	21.1%	15.5%	x
CCCNC(=O)c1ccc(N(Cc2ccccc2)S(C)(=O)=O)cc1	-2.6%	0.0%	6.4%	-6.6%	16.0%	-6.2%	-9.8%	10.6%
Cc1c(Cl)cccc1NC(=S)N1CCC(C(N)=O)(N2CCCCC2)CC1	-9.0%	4.3%	4.0%	19.9%	-10.7%	-7.2%[46.1 µM]	0.7%	-3.7%
C=CCNC(=O)CSc1n[nH]c(-c2cc(Cl)ccc2OC)n1	7.8%	x	u	-1.3%	-2.6%	-28.0%[46.1 µM]	x	x
O=C(CN1C(=O)CC(c2ccco2)Sc2ccccc21)NCc1ccc2c(c1)OCO2 (stereo unspecified)	17.7%	-6.8%	2.9%	1.6%	-13.2%	u	13.0%	-1.8%
CSCCC1NC2(C(=O)Nc3c(C)cc(Cl)cc32)[C@@H]2C(=O)N(C3CCCC3)C(=O)[C@H]12 (stereo partly specified)	-15.1%	u	u	-4.9%	-22.1%	u	-41.5%	-2.2%
Cc1cc(O)cc2c1C(=O)/C(=C/c1ccco1)O2	-24.6%	x	u	-9.9%	19.5%	17.0%[46.1 µM]	-68.7%	x
C=CCn1c(COc2cccc3ccc(C)nc23)nnc1SCC(=O)O	13.2%	-2.2%	11.1%	x	19.0%	-1.0%	11.6%	-3.3%
O=C(CSC(=S)N1CCOCC1)c1cc2ccccc2oc1=O	-19.8%	x	x	-0.5%	36.9%[activator]	x	0.4%	x
COc1cc(Br)c(CCNC(=O)Cc2ccccc2)cc1OC	3.2%	-0.9%	u	12.9%	-23.8%	-1.3%	-11.8%	-0.6%
CC1CCN(c2nc3nonc3nc2Nc2ccc(F)cc2)CC1	7.6%	x	u	-3.3%	28.2µM*	u	-8.2%	x
Cc1cc(NC(=O)c2ccoc2C)no1	-6.1%	-2.0%	4.0%	-14.5%	45.3%[activator]	1.8%	10.7%	-10.5%
CCCN1C(=O)c2cc(C(=O)NCCc3cccc(C)c3)ccc2C1O (stereo unspecified)	7.2%	0.8%	x	7.6%	30.9%	x	-0.2%	5.2%
CCCc1cc(=O)[nH]c(NCCc2ccccc2)n1	9.3%	x	11.1%	24.1%	24.2%	-0.5%	-0.9%	x
O=C(CN1CCN(Cc2ccccc2)C1=O)NCc1ccc(Cl)cc1	2.6%	3.5%	1.8%	11.6%	-11.5%	15.8%	-6.1%	5.7%
Cc1ccc(C(=O)CC2C(=O)N(c3ccccc3)C(=S)N2c2ccccc2)cc1 (stereo unspecified)	-0.2%	-8.0%	u	24.1%	-20.3%	u	u	-5.6%
O=C(CCn1c(=O)c2sccc2n(CC(=O)OCc2ccccc2)c1=O)NCc1ccccc1	-0.5%	5.5%	u	-3.2%	-8.8%	-16.9%	-1.4%	-1.5%
CCOC(=O)C1(CCc2ccccc2)CCN(C(=O)c2ccoc2)CC1	18.1%	x	u	-1.1%	-8.4%	-13.9%	-7.3%	x
CC(OC(=O)CCN1C(=O)c2cccc([N+](=O)[O-])c2C1=O)C(=O)Nc1cc(Cl)cc(Cl)c1 (stereo unspecified)	-8.3%	5.4%	u	-0.7%	-3.2%	0.3%	-4.7%	-2.2%
Cc1ccc(NC(=O)CN2C(=O)NC3(CCCc4ccccc43)C2=O)c([N+](=O)[O-])c1 (stereo unspecified)	-7.7%	x	x	12.8%	-19.0%	x	-12.4%	x
Cc1cccc(Nc2nnc(SCC(=O)NCc3cccs3)s2)c1C	x	8.4%	-8.4%	5.0%	12.4%	5.6%	-16.0%	-0.6%
CCc1ccccc1NC(=O)CSc1nnc(-c2cc(C)[nH]n2)n1N	-2.7%	x	1.0%[46.1 µM]	1.2%	3.1%	15.1%[46.1 µM]	0.4%	x
COc1ccc(C(=O)CCC(=O)N2CCN(c3ccc([N+](=O)[O-])cc3)CC2)cc1	8.9%	x	x	-13.3%	u	x	1.9%	x
COc1ccc(F)c(CN2CCC(n3nccc3NC(=O)C3CCOC3)CC2)c1 (stereo unspecified)	-22.1%	x	-21.8%	2.5%	2.2%	u	11.5%	x
O=C(O)Cc1cc(=O)[nH]n(-c2ccccc2)c1=O	2.2%	x	-1.3%[46.1 µM]	x	-0.1%	14.0%[46.1 µM]	x	x
C[C@H](NC(=O)N1CCC(Cc2ccccc2)CC1)C(=O)O	-4.2%	x	1.8%[46.1 µM]	-1.4%	-15.5%	-4.7%[46.1 µM]	4.1%	x
CC(NC(=O)c1ccc2nc(Cc3ccccc3)oc2c1)c1ccccc1 (stereo unspecified)	x	-7.1%	x	x	-13.1%	-10.3%[46.1 µM]	x	-3.3%
COc1ccccc1NC(=O)c1oc2ccccc2c1NC(=O)c1c(F)cccc1F	x	-11.0%	u	x	11.9%	16.0%[46.1 µM]	x	-2.5%
COc1ccnc(NCc2cccc(C(F)(F)F)c2)c1C#N	5.8%	u	-15.4%	-1.9%	-14.8%	-1.1%	-0.3%	8.6%
CCOc1ccc(NC(=O)CCNC(=O)Cn2ccc3ccccc3c2=O)cc1	-0.8%	x	4.7%[46.1 µM]	u	5.1%	-2.9%	-14.5%	x

Copied from the list:
Cruzain inh Det result of `Cc1cc(NC(=O)c2ccoc2C)no1` reads -10.5%
2A StopGo result of `CCc1ccccc1NC(=O)CSc1nnc(-c2cc(C)[nH]n2)n1N` reads 3.1%
2A StopGo result of `C[C@H](NC(=O)N1CCC(Cc2ccccc2)CC1)C(=O)O` reads -15.5%

Later entries:
SMILES	RE007 growth inh	Cruzain noTriton	MARV entry inh	SARS PLP yeast	2A StopGo	LASV entry inh	NS1 function inh	Cruzain inh Det
O=C(NNc1nccc(C(F)(F)F)n1)Nc1cccc(Cl)c1	-1.0%	x	x	-0.1%	-11.3%	x	-0.7%	x
Nc1nc2c(C(=O)N3CCOCC3)nnn2c2ccccc12	-2.0%	x	-11.6%[46.1 µM]	-0.1%	31.7%[activator]	-20.9%	5.6%	x
COc1cc(OC)cc(C(=O)NCCCN2CCOCC2)c1	-3.1%	2.8%	23.6%	11.7%	14.7%	5.2%	17.9%	0.0%
Cn1nc(CC(=O)Nc2cccc3ncccc23)c2ccccc2c1=O	-3.2%	0.5%	u	5.2%	u	u	5.5%	1.1%
O=C(NC(=S)NN1CCCCC1c1cccnc1)c1ccc(Br)cc1 (stereo unspecified)	9.1%	x	7.1%	-2.1%	15.8%	11.6%	-7.7%	x
O=C(CSc1nnc(Cc2ccccc2)o1)NCCN1C(=O)CSC1=O	8.9%	-8.6%	u	-3.2%	18.5%	0.0%	-4.9%	2.8%
CC(=O)c1cccc(N(CC(=O)Nc2ccc(F)cc2F)S(C)(=O)=O)c1	-13.9%	8.1%	1.2%	x	31.2%[activator]	u	-6.5%	-6.6%
Cn1ccnc1C(=O)c1cc(SCC(=O)N2CCOCC2)nc2ccccc12	-5.5%	x	25.8%[46.1 µM]	8.0%	-21.8%	13.9%	x	x
O=C(CCC(=O)Nc1ccc(Cl)cc1Cl)N/N=C/c1ccc([N+](=O)[O-])o1	-27.3%	x	u	-2.4%	-25.4%	u	x	x
CCN(CCn1cccn1)C(=O)c1ccc(OC2CCN(C(=O)COC)CC2)cc1	0.8%	x	-1.4%	-6.0%	-1.7%	1.5%	5.7%	x
O=Cc1c[nH]c2ccc(NC(=O)OCc3ccccc3)cc12	14.7%	x	12.6µM*	x	3.5%	u	x	x
